STK33 kinase inh – human STK33 kinase inhibition | Q9BYT3 | purified STK33, MBP phosphorylation, ADP-Glo luminescence | inhibition, % at 10 µM | actives 0.073% (n = 320,000);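 active = inhibition at or above 25%, using the most active replicate where run in duplicate; inactive = inhibition below 25%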
Target sequence (Q9BYT3 whole entry, looked up): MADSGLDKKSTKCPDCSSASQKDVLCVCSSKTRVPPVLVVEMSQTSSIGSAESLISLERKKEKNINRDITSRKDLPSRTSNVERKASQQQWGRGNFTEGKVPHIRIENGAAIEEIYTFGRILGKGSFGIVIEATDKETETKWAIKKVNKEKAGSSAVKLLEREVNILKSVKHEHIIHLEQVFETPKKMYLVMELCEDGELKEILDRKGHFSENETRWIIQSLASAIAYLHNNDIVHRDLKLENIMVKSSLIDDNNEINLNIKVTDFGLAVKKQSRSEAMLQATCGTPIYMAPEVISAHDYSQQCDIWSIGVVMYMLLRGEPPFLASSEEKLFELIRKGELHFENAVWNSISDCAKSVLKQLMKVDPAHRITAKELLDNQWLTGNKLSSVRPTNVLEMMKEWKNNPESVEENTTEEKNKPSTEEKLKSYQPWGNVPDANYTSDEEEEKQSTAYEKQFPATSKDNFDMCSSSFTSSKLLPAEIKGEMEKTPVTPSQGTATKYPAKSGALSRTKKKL
* hit, by the source's call. Not all compounds are listed; most or all hits stand in other tables.

SMILES	STK33 kinase inh
COc1cc2ccccc2nn1	5.1
COc1cccc(C(=O)NC2CCN(CC(=O)Nc3nccs3)CC2)c1	-2.0
O=C(NN=C1CCN(Cc2ccccc2)CC1)c1ccccc1O	-4.1
O=c1c(Cc2ccc(F)cc2)c(O)ccn1CCCN1CCOCC1	-0.4
COc1cccc(Nc2ncccc2C(=O)O)c1	-1.1
CCCNC(=O)c1ccc(OC)cc1OC	-2.0
COc1ccc([C@H]2CC(=O)C=C(c3cc(C=O)ccc3OC)C2)cc1OC	0.0
CCC(=O)Nc1ccccc1C(=O)N1CCN(Cc2ccccc2)CC1	-3.4
O=C(NCCCN1CCCC1=O)c1cc2c(s1)CCCCC2	-3.8
Cc1nnc(NC(=O)CCC(=O)N2CCC(C)CC2)s1	-1.6

3 of the compounds above, bar-delimited:
compound | STK33 kinase inh
O=C(NCCCN1CCCC1=O)c1cc2c(s1)CCCCC2 | -3.8
COc1cccc(C(=O)NC2CCN(CC(=O)Nc3nccs3)CC2)c1 | -2.0
CCCNC(=O)c1ccc(OC)cc1OC | -2.0

(more compounds)
SMILES	STK33 kinase inh
CCC(=O)Nc1cccc(C(=O)/C=C/c2cccs2)c1	8.8
COCCOC(=O)C1=C(C)Nc2ncnn2C1c1ccc(F)cc1 (stereo not drawn)	-2.2
Cc1ccc(OCCCC(=O)Nc2ccc(Br)cc2)cc1	0.8
Cc1ccccc1Nc1c(-c2ccncc2)nc2ccc(Cl)cn12	-0.6
Cc1ccc(C2=NN3C(C2)c2ccccc2OC32C(=O)Nc3ccccc32)cc1 (stereo not drawn)	0.2
CCc1ccccc1OCC(=O)Nc1cccc(S(=O)(=O)NCc2ccco2)c1	1.0
CC1(C)CC(=O)C2=C(C1)N(c1ccccc1)C(N)=C(C#N)C2c1cccnc1 (stereo not drawn)	-2.3
COc1cc(C#Cc2ccc3cc(CCO)oc(=O)c3c2)cc(OC)c1	-0.7
COc1cccc(NC(=O)CSc2nnc(-c3cc(C)n(-c4ccccc4)c3C)o2)c1	-2.8
CCOC(=O)C1CCCN(c2c(NCCN3CCCCC3CC)c(=O)c2=O)C1 (stereo not drawn)	1.2
CN1CCN(C(=S)c2ccc(OCC(=O)Nc3cccc(C(F)(F)F)c3)cc2)CC1	0.5
C(=C\CSc1nnnn1-c1ccccc1)/CSc1nnnn1-c1ccccc1	-0.9
CC(=O)Nc1cc(ON=C(C)C)cc([N+](=O)[O-])c1	-0.2
CCOC(=O)NC(=O)C(=CNc1cccc(C)c1)C(=O)NC(=O)OCC	-0.3
CC(=O)N1c2ccc(S(=O)(=O)N3CCCCC3)cc2CC1C(=O)NCc1ccc(N(C)C)cc1 (stereo not drawn)	-3.1
Cn1ccnc1SCC(=O)n1c2c(c3ccccc31)CCCC2	-0.3
Cc1cc(C)c2nc3nc(C)cc(C)c3c(N)c2c1	0.2
Cc1cc2ncn(-c3ncnc4sc5c(c34)CCC(C)C5)c2cc1C (stereo not drawn)	0.2
O=C(O)c1ccc(-n2nnnc2SCc2ccccc2)cc1	-3.6
COc1ccc(NCC(=O)N/N=C/c2cc([N+](=O)[O-])ccc2N2CCCC2)cc1	-1.4
O=C(Cc1ccccc1)Nc1ccnn1C1CCN(Cc2ccc(CO)o2)CC1	0.4
C=CCNC(=O)c1ccc(-c2nc(-c3ccccc3)cs2)cc1	-0.4
O=C(CCCSc1ccc(Cl)cc1)Nc1ccccc1O	-2.4
O=C1C(c2cc(=O)c3ccccc3[nH]2)=C(O)c2ccccc21	9.7
COc1ccc(C(C)=O)cc1CSCCC#N	-1.3
CCOC(=O)N1CCN(C(=O)C2CCC(=O)N(CCCN3CCCC3=O)C2)CC1 (stereo not drawn)	-1.0
COc1ccc(-c2nnc(-c3ccc(Br)o3)o2)cc1OC	-0.6
COc1ccc(N(CC(=O)NCC2CCCO2)S(=O)(=O)c2ccccc2)cc1OC (stereo not drawn)	-1.4
COC(=O)c1ccsc1NC(=O)CSc1nnnn1-c1ccccc1SC	0.9
O=C1NN(c2ccccc2)C(=O)C2C1C1C=CC2C12CC2 (stereo not drawn)	1.7
CCCN(CCC)CCCNC(=S)Nc1ccc2nc(N3CCCC3)cc(C)c2c1	1.8
S=C(NCc1cccnc1)Nc1ccc(Oc2ccc(Cl)cc2)cc1	-2.6
N#C/C(=C\c1ccc(-c2cccc(C(F)(F)F)c2)o1)C(=O)Nn1cnnc1	-1.1
O=C(O)c1ccc(-n2c(-c3ccccc3)n[nH]c2=S)cc1	-0.5
CCOC(=O)C1(CCc2ccccc2)CCN(Cc2ccccn2)CC1	-1.9
CCN1CCN(C(=O)C2CCN(S(=O)(=O)N3CCC4(CC3)OCCO4)CC2)CC1	-0.2
O=C(c1ccc(S(=O)(=O)NCc2ccco2)cc1)N1CCCC1	-0.2
CC(C)C(=O)N1CCN(c2nc(-c3ccc(Cl)cc3)cs2)CC1	0.8
O=C1N(Cc2cccnc2)C[C@@H]2C[C@@H](c3cccc(OCc4ccccc4)c3)N3CCC[C@@]123	-1.3
COC(=O)c1ccc(CSc2nnc3nc(C)cc(C)n23)cc1	-2.6
O=C(c1cc(COc2ccc(F)cc2Cl)on1)N1CCN(C2CCCC2)CC1	-1.9
COc1ccc(NS(=O)(=O)c2c(F)cc(F)c(Cl)c2F)cc1S(=O)(=O)N1CCCCC1	-1.6
Nc1nc(SCC(=O)Nc2ccc(Br)cc2Br)n[nH]1	-0.5
CCC(=O)N1c2ccc(S(=O)(=O)NCc3ccccc3)cc2CC1C (stereo not drawn)	0.5
CCCc1nnc(NC(=O)c2cc3ccccc3oc2=O)s1	-1.3
O=C(O)CCCC(=O)N1CCCC1	0.3
O=C(c1ccc(Cl)cc1)C1CCCN(C(=O)c2csnn2)C1 (stereo not drawn)	-0.3
Cc1cc(NC(=O)CSc2nc3c(cc2C#N)CCC3)no1	-0.3
Cc1onc(-c2ccccc2Cl)c1C(=O)NNC(=O)C1CCN(Cc2ccccc2)CC1	-1.2
OC(CCN1CCOCC1)(c1ccc(Cl)cc1)C1CCCCC1 (stereo not drawn)	-0.9
The results go on.
SMILES	STK33 kinase inh
CC(C)(C)C(C(=O)O)N1CCS(=O)(=O)CC1 (stereo not drawn)	-0.6
Cc1nc(NC(=O)C2CCCC2)sc1Cc1ccc2c(c1)OCO2	-0.5
COc1ccc(/C(O)=C/Sc2nnc(Cc3ccccc3)o2)cc1	-0.7
Cc1ccccc1CN1CCC(CNC(=O)C2CCCN(c3ncnc4c3nc3n4CCCCC3)C2)CC1 (stereo not drawn)	2.1
COCCNC(=O)CN(Cc1ccccc1)C(=O)CCC(=O)Nc1nccs1	-0.6
CCCc1nc(N2CCN(C)CC2)c2sc(=S)n(-c3ccccc3)c2n1	1.1
Cc1ccc(-n2nc(-c3cccs3)cc2C(=O)NCC2CCCO2)c(C)c1 (stereo not drawn)	-1.9
CC(=O)C(=Cc1cn(-c2ccccc2)nc1-c1ccccc1)C(C)=O	0.7
COc1ccc(C2Nc3ccccc3C(=O)N2c2ccc(C)cc2)cc1Cn1nc(C)c([N+](=O)[O-])c1C (stereo not drawn)	0.4
CC(C)C(=O)Nc1cccc(-c2nc3ccccc3c(=O)o2)c1	-1.4
CCCCC(CC)C(=O)Nc1cccc(SC)c1 (stereo not drawn)	0.2
CC(=O)NC1(c2ccccc2)CCN(c2cc(C)nc(-c3ccccc3)n2)CC1	0.2
CN=C(Nc1ccc2c(c1)OCO2)SC1CC(=O)N(c2ccccc2)C1=O (stereo not drawn)	1.0
CC(=O)c1ccc(NC(=O)/C(C#N)=C/c2ccncc2)cc1	-1.0
O=C(CCc1ccccc1)Nc1ccccc1	0.1
COc1ccccc1N(CC(=O)N1CCN(c2ccc(F)cc2)CC1)S(=O)(=O)c1ccc(C)cc1	-1.9
N#Cc1ncc(C(F)(F)F)cc1Sc1ccc(N)cc1	-1.4
Cc1ccc(CN2CCN(C3CCCC3)C(CCO)C2)s1 (stereo not drawn)	0.4
NC(=O)c1ccc(N=Cc2ccc([N+](=O)[O-])s2)cc1	0.8
Cc1ccc(N2C(=O)CC(Cc3ccc(Cl)cc3)C2=O)cc1 (stereo not drawn)	-0.2
CCCCN(CC)C(=O)Cn1cnc2ccc(S(=O)(=O)N3CCC(C)CC3)cc2c1=O	0.2
O=C(NN=C1CCCCCC1)c1ccc2c(c1)OCO2	0.7
Cc1ccc2oc(=O)n(Cc3ccccc3)c2c1	-0.5
COc1cc(OC)c(OC)cc1CNC(=O)c1cc(=O)c2ccccc2o1	-0.3
Cc1ccc(N(C(=O)c2ccco2)C2C=CS(=O)(=O)C2)cc1 (stereo not drawn)	-0.2
COc1ccccc1C(=O)NC(=S)NC12CC3CC(CC(C3)C1)C2	-0.2
COc1ccc(NC(=O)C2CC(=O)N/C(=N/NC(=O)c3ccc(Cl)cc3)S2)cc1 (stereo not drawn)	-1.4
CCc1ccccc1NC(=O)CSc1nnc([C@@H](NC(=O)OC(C)(C)C)C(C)C)o1	-0.3
COc1cccc(NC(=O)c2ccccc2-c2nc(-c3ccc(Cl)cc3)no2)c1	-1.3
CCC(=O)N1CCc2cc(Br)cc(S(=O)(=O)N3CCCC(C(=O)O)C3)c21 (stereo not drawn)	0.5
COc1ccc(S(=O)(=O)Nc2c(C(=O)O)[nH]c3ccccc23)c(OC)c1	-1.6
O=C(c1ccc(-n2cnnn2)cc1)N1CCCCC1	8.8
Cc1ccc(S(=O)(=O)N2CCCCC2)cc1NC(=O)COC(=O)C1CC2C=CC1C2 (stereo not drawn)	-2.4
CCOC(=O)c1c(C)[nH]c(C)c1C(=O)CSc1nnc(-c2ccc(OC(F)F)cc2)o1	-0.3
Cc1ccc(S(=O)(=O)N2CCOCC2)cc1C(=O)Nc1ccccc1N1CCCC1	-1.8
CN1CCN(C(CNS(=O)(=O)c2ccc([N+](=O)[O-])cc2)c2ccc(F)cc2)CC1 (stereo not drawn)	-0.4
CCOC(=O)c1c(CC(C)C)csc1/N=C/C1=C(O)CCCC1=O	-8.4
O=C(O)c1nn(CCOc2cccc(Cl)c2)c(=O)c2ccccc12	0.5
O=c1[nH]c2cc3c(cc2cc1CN(CCO)S(=O)(=O)c1ccccc1Cl)OCCO3	2.0
CCc1ccccc1NC(=O)Nc1cccn(Cc2ccccc2F)c1=O	1.1
O=C(CC1C(=O)NCCN1C(=O)c1ccc(F)cc1)OCc1ccccc1 (stereo not drawn)	1.2
Cc1ncoc1C(=O)Nc1ccccc1C(N)=O	1.5
COc1ccccc1-c1cc(C(F)(F)F)nc(S(C)(=O)=O)n1	1.0
CC(C)CC(=O)c1c(O)c(C=O)c(O)c2c1O[C@@]1(C)[C@@H](C2)C[C@H]2C[C@@H]1C2(C)C	-0.3
Cc1cc(C)c(NS(=O)(=O)c2ccc(NC(=O)CCC(=O)O)cc2)c(C)c1	-4.8
CC1CCCC(NC(=O)C2CCC(CNc3c(N4CCCCC4)c(=O)c3=O)CC2)C1C (stereo not drawn)	-0.3
CCc1ccc(N(CC(=O)NC2CCCC2)S(=O)(=O)c2c(C)noc2C)cc1	-1.0
O=C(NCCCN1CCN(Cc2ccccc2)CC1)C1CCN(c2nnc(-n3cccc3)s2)CC1	-1.7
O=C(COC(=O)Cc1ccccc1F)Nc1cccc(S(=O)(=O)NC2=NCCCCC2)c1	-2.9

Quoted from the results shown for reference:
SMILES	STK33 kinase inh
Cc1ccc(N(C(=O)c2ccco2)C2C=CS(=O)(=O)C2)cc1 (stereo not drawn)	-0.2
COc1ccccc1C(=O)NC(=S)NC12CC3CC(CC(C3)C1)C2	-0.2
COc1ccc(NC(=O)C2CC(=O)N/C(=N/NC(=O)c3ccc(Cl)cc3)S2)cc1 (stereo not drawn)	-1.4
CCc1ccccc1NC(=O)CSc1nnc([C@@H](NC(=O)OC(C)(C)C)C(C)C)o1	-0.3
COc1cccc(NC(=O)c2ccccc2-c2nc(-c3ccc(Cl)cc3)no2)c1	-1.3
CCC(=O)N1CCc2cc(Br)cc(S(=O)(=O)N3CCCC(C(=O)O)C3)c21 (stereo not drawn)	0.5
COc1ccc(S(=O)(=O)Nc2c(C(=O)O)[nH]c3ccccc23)c(OC)c1	-1.6
O=C(c1ccc(-n2cnnn2)cc1)N1CCCCC1	8.8
Cc1ccc(S(=O)(=O)N2CCCCC2)cc1NC(=O)COC(=O)C1CC2C=CC1C2 (stereo not drawn)	-2.4
CCOC(=O)c1c(C)[nH]c(C)c1C(=O)CSc1nnc(-c2ccc(OC(F)F)cc2)o1	-0.3
Cc1ccc(S(=O)(=O)N2CCOCC2)cc1C(=O)Nc1ccccc1N1CCCC1	-1.8
CN1CCN(C(CNS(=O)(=O)c2ccc([N+](=O)[O-])cc2)c2ccc(F)cc2)CC1 (stereo not drawn)	-0.4
CCOC(=O)c1c(CC(C)C)csc1/N=C/C1=C(O)CCCC1=O	-8.4
O=C(O)c1nn(CCOc2cccc(Cl)c2)c(=O)c2ccccc12	0.5
O=c1[nH]c2cc3c(cc2cc1CN(CCO)S(=O)(=O)c1ccccc1Cl)OCCO3	2.0
CCc1ccccc1NC(=O)Nc1cccn(Cc2ccccc2F)c1=O	1.1
O=C(CC1C(=O)NCCN1C(=O)c1ccc(F)cc1)OCc1ccccc1 (stereo not drawn)	1.2
Cc1ncoc1C(=O)Nc1ccccc1C(N)=O	1.5
COc1ccccc1-c1cc(C(F)(F)F)nc(S(C)(=O)=O)n1	1.0
CC(C)CC(=O)c1c(O)c(C=O)c(O)c2c1O[C@@]1(C)[C@@H](C2)C[C@H]2C[C@@H]1C2(C)C	-0.3
Cc1cc(C)c(NS(=O)(=O)c2ccc(NC(=O)CCC(=O)O)cc2)c(C)c1	-4.8
CC1CCCC(NC(=O)C2CCC(CNc3c(N4CCCCC4)c(=O)c3=O)CC2)C1C (stereo not drawn)	-0.3

Assay outcomes: PubChem, Broad Institute
